Yeast UUG start – yeast start codon fidelity modulation; activity score, % at 18.7 µM; 350,000 tested, 0.13% active; S. cerevisiae UUG-firefly luciferase reporter, luminescence/redox ratio; AID 602363;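 active means replicate mean at a twofold rise or more, about +100% in these data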;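 further: firefly luciferase made from a UUG start codon reports start codon fidelity; reporter light over untreated wells divided by growth signal over untreated wells; some hits fall short of that in this replicate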
CSC inhib – blocks cancer stem cells; cancer stem cell-like cells viability, luminescence; inhibition, % at 7.5 µM; 300,000 tested, 1.1% active; AID 2717;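 active means mean at 75% or more and at least half the replicates too; inconclusive means mean and replicates disagree; tested in HMLE shEcad cells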;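 further: 0% = median of negative and 100% = median of positive control wells; the first replicate is given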
Rce1 inhib – inhibitors of yeast Ras-converting enzyme | Q03530 | yeast membranes, quenched prenylated peptide cleavage fluorescence | calls only | 290,000 tested, 0.27% active;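 active means fall in fluorescence gain of 50% or more versus controls, with final raw signal at or below 3038400; inconclusive means same 50% fall but final raw signal above 3038400; inactive means fall in fluorescence gain under 50%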;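 further: plate controls were neutral control wells for no effect and wells lacking membranes for full effect; tested at 10 µM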
Target sequence (Q03530 whole entry, looked up): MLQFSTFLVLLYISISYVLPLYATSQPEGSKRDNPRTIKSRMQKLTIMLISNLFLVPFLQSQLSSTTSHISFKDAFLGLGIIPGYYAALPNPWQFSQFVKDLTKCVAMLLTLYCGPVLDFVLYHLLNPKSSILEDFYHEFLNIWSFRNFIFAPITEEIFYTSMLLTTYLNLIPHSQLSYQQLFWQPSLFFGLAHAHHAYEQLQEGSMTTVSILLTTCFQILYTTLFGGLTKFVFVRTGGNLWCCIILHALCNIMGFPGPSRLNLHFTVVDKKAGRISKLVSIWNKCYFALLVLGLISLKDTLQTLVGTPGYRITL
eIF4H FP inh – inhibitors of RNA binding by human eIF4H; Q15056; eIF4H fluorescence polarization binding assay; inhibition, % at 35 µM; 290,000 tested, 0.94% active;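 active means 50% or more with normal probe brightness, or confirmed in later tests; inconclusive means above 50% with abnormal brightness, or retests that disagree; inactive means below 50% or failed in later tests; about a fifth of its hits are not listed in these tables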;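 further: calls also rest on retests at 20 µM and on dose response follow-up; 0% = protein and probe with vehicle and 100% = probe without protein; strong numbers were not always called active; many hits fall short of the cut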
PABP polyA inh – blocks human PABP binding to poly(A) RNA. inhibition, % at 35 µM. fluorescence polarization. 290,000 tested, 1% active. P11940;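 active means 50% or more with normal probe brightness, or confirmed in later tests; inconclusive means above 50% with abnormal brightness, or retests that disagree; inactive means below 50% or failed in later tests; about a fifth of its hits are not listed in these tables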;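 further: calls also rest on retests at 20 µM and on dose response follow-up; controls were probe without protein and protein plus probe with vehicle; some compounds called inactive have numbers as strong as hits; many hits fall short of the cut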
HIV Env fusion – blocks HIV Env-driven cell-cell fusion; 360,000 tested, 1.1% active; HeLa-JRFL Env/CEM21 cell fusion, luciferase; AID 651610; inhibition, % at 12.3 µM;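 active means mean replicate inhibition score of at least 50 and every replicate individually at or above 50; inconclusive means only one of the two criteria met; inactive means mean below 50 and not all replicates reaching 50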;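 further: 0% = plate neutral controls and 100% = maraviroc near 300 nM; one replicate is shown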
MT1-MMP act inh – blocks activation of human MT1-MMP. 360,000 tested, 0.061% active. GFP/RFP ratio change, % at 20 µM. P50281. AID 651647. HT1080 RFP-PRO-GFP cells, GFP/RFP ratio fluorescence, overnight; percent of plate control window, DMSO zero;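 active means GFP/RFP ratio change of at least 30% with cell ATP level not reduced by more than half and red fluorescence within 50% of control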; further: strong numbers were not always called active
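Material – HT1080 RFP-PRO-GFP cells · Control set – DMSO wells and RFP-L50D-GFP cells · Incubation – overnight cell settling, then overnight compound exposure, 37 °C, 5% CO2 · Compound dosing – single-point 20 µM compound, 1% DMSO · Read-out – GFP/RFP fluorescence ratio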
eIF4H FP inh retest – recorded beside eIF4H FP inh, whose call it bears; inhibition, %; compound at 20 µM; confirmation average;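 mean of two retest wells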
PABP polyA inh retest – also measured in PABP polyA inh; calls as there; inhibition, %; compound at 20 µM; confirmation repeats;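 mean of two retest wells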
MT1-MMP act inh RFP – also measured in MT1-MMP act inh; calls as there; RFP signal change, %; measured here: RFP expression control read;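 0 = vehicle wells; hits needed this value within 50% of zero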
The depositor's hits bear a star; i = inactive; ? = inconclusive; / = not tested or not shown; & = joins results of further samples; [ ] = dose if it differs, or a comment.

SMILES	Yeast UUG start	CSC inhib	Rce1 inhib	eIF4H FP inh	PABP polyA inh	HIV Env fusion	MT1-MMP act inh	MT1-MMP act inh RFP	others
COc1ccc(C(=O)CC(=O)C(=O)Nc2cc(C)ccc2C)cc1	-6	-6	i	3	-3	-4	1	5
CC(=O)Nc1cccc(C(=O)Nc2cccc3ncccc23)c1	-9	5	i	14	20	-19	-1	0
CC(C)OC(=O)CSc1nnc(SCc2cccc3ccccc23)s1	-11	-9	i	-12	-10	0	-2	0
C[C@@H]1[C@H](O)C[C@@]23COC(=O)C2=CCC[C@@H]3[C@@]1(C)CC/C(=C/CO)CO	-12	5	/	/	/	/	1	-4
COc1cc2c(cc1OC)-c1cc(NCc3ccccn3)nc(=O)n1CC2	-13	-3	i	-7	-4	/	20	8
CC(C)NC(=O)C1CCCN(S(=O)(=O)c2cccc3nonc23)C1 (stereo not given)	-23	9	i	-11	8	0	0	3
CCOC(=O)Nc1sc(C)c(C)c1C(N)=O	-2	-9	i	-7	-11	/	-4	2
COCCN(C(=O)COC(=O)/C=C/c1nc2ccccc2s1)c1c(N)n(Cc2ccccc2)c(=O)[nH]c1=O	-2	14	i	/	/	-7	/	/
Cc1cc(S(=O)(=O)NC(C)C)ccc1OCC(=O)N1CCOCC1	-12	-6	i	-6	8	-21	-1	5
Cc1cc(C)c2c(c1)/C(=N/NS(=O)(=O)c1ccccc1)CCC2	-7	-2	i	-1	-6	-58	-4	-6
Cc1ccc([C@H]2N[C@]3(CCCN(CC4CCCCC4)C3=O)[C@H]3C(=O)N(Cc4ccccc4)C(=O)[C@@H]23)cc1	-17	/	/	/	/	-118	-2	-4
CCc1ccc(C2=Nn3c(nnc3-c3cccs3)SC2)cc1	-24	4	i	-6	-4	-26	-5	-6
CN(Cc1ccccc1)S(=O)(=O)c1ccc(OCC(=O)Nc2cccc([N+](=O)[O-])c2)cc1	-7	-3	i	-4	24	-7	-1	-5
CCC(=O)c1ccc(OCC(O)Cn2nnc3ccccc32)cc1 (stereo not given)	/	3	i	18	8	-5	0	-1
O=C(NC1CCCC1)C(c1ccccc1F)N(C(=O)Cc1cccs1)c1ccc2c(c1)OCCO2 (stereo not given)	/	-6	i	1	1	12	-2	-3
CC(=O)Nc1ccc(S(=O)(=O)N(C)c2ccc(OCC(=O)OCC(=O)NCc3ccco3)cc2)cc1	/	-7	i	15	12	-13	-3	-1
COc1ccc(CC(=O)NCC(C)(C)N2CCOCC2)cc1	-19	-1	i	0	13	-1	1	2
CCc1nc2ccc(C(=O)Nc3cccc(NS(C)(=O)=O)c3)cn2c1N(C)CCN1CCOCC1	-20	/	/	/	/	15	1	1
CSCCNC(=O)C1(C)CCN1C(=O)CCc1ccccc1 (stereo not given)	-9	/	/	/	/	-4	3	6
COc1ccccc1CNC(=O)CN(C)S(=O)(=O)c1ccc2c(c1)n(C)c(=O)c(=O)n2C	-16	-19	i	-1	0	-6	3	3
Cc1ccc(-c2ccc3c(c2)O[C@H](CN(C)Cc2cncnc2)[C@@H](C)CN([C@H](C)CO)S3(=O)=O)cc1	-10&0&17	/	/	/	/	7&40[16.7 µM]	-4	-1
CC(=O)c1cccc(NC(=O)c2ccc(S(=O)(=O)N3CC(C)OC(C)C3)cc2)c1 (stereo not given)	-25	/	/	/	/	-19	2	-11
O=C(O)CCCCCn1c(SCC(=O)Nc2ccc(F)cc2)nc2ccsc2c1=O	-16	4	i	2	-12	4	4	2
COc1ccccc1NC(=O)Cn1nnc(-c2ccccc2NC(=O)c2cc3ccccc3oc2=O)n1	-13	-9	i	-4	-8	/	1	1
CCCc1cc(C(=O)N2CCCN(C)CC2)cs1	-2	-14	i	-3	-7	9	0	6
Cn1c(CCN2CCCC2)nc2cc(NC(=O)COc3ccc(Cl)cc3)ccc21	-8	/	/	/	/	27	1	-6
CC(=O)SC(C)CC(=O)NCc1ccccc1 (stereo not given)	-2	-19	i	-3	3	-21	0	8
Cc1cccc(CC2S/C(=N/N=C/c3ccco3)NC2=O)c1 (stereo not given)	-3	-2	/	4	13	11	2	8
CCN(CCO)c1nc(SC)nc2c1sc1nc(-c3ccco3)c3c(c12)CCC3	-11	/	i	85*	73*	/	-7	4	eIF4H FP inh retest=88*;PABP polyA inh retest=87*
CCCCCn1c(N2CCOCC2)nc2c1c(=O)n(CC(N)=O)c(=O)n2C	-2	-6	i	4	-4	/	0	2
CC(C)CCNC(=S)Nc1ccc(Br)cc1	/	17	i	2	-2	/	3	2
Cc1cc(C(=O)N/N=C/C=C/c2ccc([N+](=O)[O-])cc2)n[nH]1	/	/	i	-15	-14	15	-1	-1
CSc1nc2ccccc2c(=O)n1Cc1ccc(F)cc1	/	-3	i	-10	-10	23	-12	-10
Cc1cc(C)n2nc(-c3ccsc3-n3c(C)ccc3C)cc2n1	-7	-1	i	?	?	-34	-18	45
COc1ccc(Cl)cc1NC(=S)NC(=O)c1ccc2c(c1)OCO2	-9	16	i	-6	-2	-26	1	0
COc1ccc(-c2cc3c(=O)n(CC(=O)NCc4cccnc4)nc(C)n3n2)cc1	20	-10	i	7	8	3	6	3

3 records drawn at random from the list so far:
SMILES	Yeast UUG start	CSC inhib	Rce1 inhib	eIF4H FP inh	PABP polyA inh	HIV Env fusion	MT1-MMP act inh	MT1-MMP act inh RFP	others
CCN(CCO)c1nc(SC)nc2c1sc1nc(-c3ccco3)c3c(c12)CCC3	-11	/	i	85*	73*	/	-7	4	eIF4H FP inh retest=88*;PABP polyA inh retest=87*
COc1ccc(Cl)cc1NC(=S)NC(=O)c1ccc2c(c1)OCO2	-9	16	i	-6	-2	-26	1	0
CSc1nc2ccccc2c(=O)n1Cc1ccc(F)cc1	/	-3	i	-10	-10	23	-12	-10

Next compounds
SMILES	Yeast UUG start	CSC inhib	Rce1 inhib	eIF4H FP inh	PABP polyA inh	HIV Env fusion	MT1-MMP act inh	MT1-MMP act inh RFP	others
N#CC1(NC(=O)COC(=O)/C=C/c2ccc3ccccc3n2)CCCCC1	-9	-11	i	29	12	10	-4	2
O=C(/C=C/c1ccccc1)C1C(=O)c2ccccc2C1=O	/	17	i	-2	7	-35	-8	-6
C=CCn1cccc(C(=O)Nc2ccc(C)c(Cl)c2)c1=O	15	-3	i	0	-10	-31	2	-6
COc1ccc(C2C(C(=O)O)c3ccccc3C(=O)N2C)cc1Br (stereo not given)	-11	7	i	11	4	-58	9	0
CC1(C)CC(=O)c2cc(C(=O)NC3CCSC3=O)c(=O)n(-c3ccccc3)c2C1 (stereo not given)	-10	-20	i	1	-1	23	5	4
COc1ccc(S(=O)(=O)N2CC(C)N(C(=O)N(C)C)C2C(C)C)cc1 (stereo not given)	-9	-4	i	4	-1	8	-3	-2
CCCNC(=S)N1CCN(c2nc(C)nc3sc4c(c23)CCCC4)CC1	-18	-16	i	7	0	21	3	-5
Cc1ccc(S(=O)(=O)N2CCOCC2)cc1NC(=O)COC(=O)Cc1ccsc1	/	-11	i	-10	-6	-1	-2	0
Cc1ccc(CN2CCN(Cc3ccc4c(c3)OCCO4)CC2CCO)cc1 (stereo not given)	/	1	i	7	0	-3	13	5
COc1ccc(-n2c(N)c(C(=O)NCC3CCCO3)sc2=S)cc1 (stereo not given)	-10	6	i	9	20	-25	-3	-1
C/C(Cl)=C\Cn1c(NCCc2ccccc2)nc2c1c(=O)n(C)c(=O)n2C	-17	27	i	0	-1	/	-7	-22
CC(C)(C)c1ccc(OCC(=O)Nc2ccc(-c3nc4cccnc4o3)cc2)cc1	/	31	i	5	-4	/	5	6
c1ccc2sc(Nc3nc4cc5c(cc4s3)OCO5)nc2c1	-22	-5	i	21	10	-167	-2	-1
O=C(NC(=S)N1CCc2ccccc21)c1ccccc1Cl	-27	3	i	9	-2	-49	13	9
O=C(NC(=S)Nc1ccc(CN2CCOCC2)cc1)c1cc2ccccc2o1	/	-4	/	-7	-2	17	7	3
CCOC(=O)C1=C(O)c2ccccc2C(=O)/C1=C\c1ccc(C)cc1	-11	54	/	44	2	/	9	43
COc1cccc(NC(=O)[C@H](Cc2ccccc2)NC(=O)[C@@H]2Cc3ccccc3CN2)c1	-1	4	i	-14	-16	-12	1	-1
O=C1N[C@@H](Cc2cn(S(=O)(=O)c3ccccc3)c3ccccc23)C(=O)N[C@H]1Cc1ccccc1	-11	5	i	/	/	-8	-5	-6
CN(C)CCCNc1ccc(-c2nn(C)c(=O)c3ccccc23)cc1[N+](=O)[O-]	-2	-10	i	1	-10	20	11	7
CCOc1ccccc1/C=N/NC(=O)c1ccc(Cn2cc([N+](=O)[O-])cn2)o1	-32	-10	i	3	-3	/	-1	3
CC(/C=C/C1(O)C(C)CC(=O)CC1(C)C)OC1OC(CO)C(O)C(O)C1O (stereo not given)	-13	-1	i	14	6	/	3	-1
CCc1nc2c(OCc3ccc(OC(F)F)cc3)cccn2c1N(C)C(=O)c1ccco1	-20	/	/	/	/	4	-5	-3
O=C(Nc1cc(C(F)(F)F)ccc1N1CCOCC1)c1ccccc1	-23	/	i	4	3	14	-2	-6
CN1C(=O)C(O)(CC(=O)/C=C/c2ccco2)c2cc(Br)ccc21 (stereo not given)	4	23	i	10	16	-2	-8	3
O=C(NCCCN1CCOCC1)C(=O)N/N=C/c1cccc2ccccc12	/	-8	i	-4	-2	-20	-2	-2
O=C(CSc1ncccn1)N/N=C/c1cccs1	-11	7	i	8	-6	-6	8	3
Cc1ccc(NC(=S)Nc2cccnc2)c(S(=O)(=O)N2CCCCC2)c1	/	15	i	-8	-14	45	4	-7
COc1ccc(NC(=O)c2ccc3c(c2)CCN3S(=O)(=O)c2ccccc2)cc1	-8	7	i	-10	-4	3	4	-10
CCOc1ccc(NC(=O)CN(C)C(=O)c2cc([N+](=O)[O-])ccc2N2CCOCC2)cc1OCC	/	4	i	/	/	-3	-1	3
CCOc1ccc(C2c3c(oc4cc(C)c(C)cc4c3=O)C(=O)N2CCCN(C)C)cc1OC (stereo not given)	1	-8	i	-2	-7	1	-2	2
CC1(C)CC(=O)C(N=Nc2cc(C(F)(F)F)ccc2Cl)=C(O)C1	/	/	i	-8	5	15	2	1
CCCCOc1ccc(OCCSc2nc3ccccc3n2CC(=O)O)cc1	-12	-8	i	1	4	11	0	1
CCC1(c2ccccc2)NC(=O)N(CC(=O)Nc2cc(Cl)ccc2N2CCN(C)CC2)C1=O (stereo not given)	-11	/	/	/	/	1	4	3
Cc1cc(C)n(-c2ccc(C(=O)NCc3cccs3)cc2)n1	-13	-25	i	3	-2	26	0	3
COc1nc(Nc2cccc(F)c2)nc(OC)n1	-10	-14	i	0	-12	40	1	-2
CCOC(=O)c1c(-c2cc(OC)c(OC)c(OC)c2)csc1N	2	/	/	/	/	0	0	-6
COc1ccccc1N=CC1=C(O)CC(c2ccccc2)CC1=O (stereo not given)	1	26	i	1	-6	-11	-3	-6
O=C(O)/C=C/c1cccc(NC(=O)Nc2ccc([N+](=O)[O-])cc2)c1	-15	2	i	-11	6	-24	-5	-3
COc1cc(C=Nc2c(C)cc(C)cc2C)ccc1OC(C)=O	-2	-3	i	-2	4	-6	0	3
CC1=CC(C)(C)N(C(=O)CSc2nnc(N)s2)c2cc(C)c(C)cc21	-7	6	i	3	0	-5	2	1
COc1cc2ccccc2cc1C(=O)N1CCCCC1	-21	-3	i	/	/	-6	-1	0
COCCNCCCCOc1ccccc1-c1ccccc1	-13	2	i	5	-10	/	1	0

Bioassay records: PubChem, several laboratories

A portion of the library; count on the stated rates, not on these rows.
